Compound activity (PubChem)
A1 inh = inhibitors of A1; hit rate 0.51% among 21,000; AID 2241; caspase activation, % (test concentration not listed); MEF A1-2A-BIM cells, caspase-Glo luminescence, 3 h; percent of clofoctol signal, DMSO as zero;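 active means most replicate scores above 10, or exactly half above 10 with mean activity above 10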;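 further: effector caspase 3 and 7 activity cleaving a DEVD luciferin substrate; 50 nL library stock added to about 30 µL; numbers are from one replicate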
BJeLR viab HTS = lowers viability of BJeLR cells. viability loss activity score, % (concentration not given with the values). BJeLR fibroblasts viability, CellTiterGlo ATP luminescence, 48 h; HRASV12, hTERT and SV40 LT/ST transformed. hit rate 0.64% among 30,000; in the data active means viability loss activity score above about 50%; about a fifth of its hits are not listed in these tables;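 further: higher score means fewer live cells and less ATP luminescence; stock transfer was 50 or 100 nL into about 30 µL; 0% = vehicle wells and 100% = a reference killing control; one replicate is shown; the record names a cut of 85%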
* hit, by the source's call; · = no result given.

Results follow in this order: A1 inh, BJeLR viab HTS
1: Cc1cc(C)c(Cn2c(=O)n(NC(=O)c3ccccc3)c(=O)c3sccc32)c(C)c1
    ·, 6.3
2: O=C(Nc1ccc(-c2nc3ccccc3s2)cc1)c1cccc(F)c1
    -5.6, -1.7
3: O=C(c1ccccc1)N1CCN(C2=NS(=O)(=O)c3ccccc32)CC1
    1.0, -5.6
4: C[C@@H]1CN([C@@H](C)CO)C(=O)c2cc(NC(=O)CCC(F)(F)F)ccc2O[C@H]1CN(C)S(=O)(=O)c1ccc(F)cc1
    0.4, 2.3
5: C[C@H]1CN([C@@H](C)CO)C(=O)c2cccc(NC(=O)c3nc4ccccc4s3)c2O[C@H]1CN(C)Cc1ccncc1
    ·, 3.4
6: O=C1C2CC3CC1CC(C(=O)O)(C3)C2
    -0.2, 6.7
7: COc1ccc2c(c1O)CN(C)CCc1cc3c(cc1C(=O)C2)OCO3
    0.3, -2.1
8: [O-][n+]1onc2c1CCc1c-2nc(-c2ccco2)n1O
    -0.9, -5.1
9: C[C@@H]1CN([C@@H](C)CO)C(=O)c2cccc(NC(=O)Nc3ccc4c(c3)OCO4)c2O[C@@H]1CN(C)C(=O)Nc1ccccc1
    ·, 2.6
10: O=C(CN1C(=O)c2ccccc2C1=O)N1CCN(Cc2ccccc2)CC1
    0.4, 2.7
11: COc1ccc(CN(C)C[C@@H]2Oc3c(NS(=O)(=O)c4ccc(F)cc4)cccc3C(=O)N([C@@H](C)CO)C[C@@H]2C)cc1
    ·, -4.3
12: CSc1nc(-c2ccco2)nn1C(=O)c1ccccc1
    ·, 3.3
13: COC(=O)NC(Nc1ccccc1C(F)(F)F)C(=O)c1ccccc1 (stereo unspecified)
    -0.6, 2.7
14: Cc1noc(C)c1NC(=O)N(C)C[C@@H]1Oc2c(NC(=O)Nc3ccc4c(c3)OCO4)cccc2C(=O)N([C@@H](C)CO)C[C@@H]1C
    ·, -8.9
15: Cc1ccccc1-c1oncc1-c1nnnn1-c1ccccc1
    0.2, 0.7
16: CCC(CO)NS(=O)(=O)c1cc(-c2nnc3c4ccccc4c(C)nn23)ccc1OC (stereo unspecified)
    ·, -7.6
17: CCCC(=O)Nc1ccc2c(c1)c1ccccc1n2CC
    ·, 6.5
18: Cc1ccc(-c2nsc(SCC(=O)NCc3ccc4c(c3)OCO4)n2)cc1
    1.2, -4.3
19: Cc1ccc2c(c1)N(C(=O)NCc1ccccc1)CC(C)O2 (stereo unspecified)
    1.0, -0.9
20: CCc1ccc(/C=c2\sc3nc(C4COc5ccccc5O4)nn3c2=O)cc1 (stereo unspecified)
    -0.3, -5.9
21: CCOC(=O)c1ccc2nc(C(F)(F)F)cc(N3CCN(c4ccccc4)CC3)c2c1
    0.3, -1.7
22: Cc1cc(C2(c3cc(C)c(N)c(C)c3)CCCCC2)cc(C)c1N
    -0.9, -2.1
23: O=C(CSc1oc(-c2ccccc2)nc1S(=O)(=O)c1ccccc1)Nc1ccc(F)cc1
    ·, 5.8
24: Cn1c(=O)c2c(ncn2CC(=O)NCc2ccco2)n(C)c1=O
    0.4, -1.6
25: COc1ccc(S(=O)(=O)N(C)C[C@@H]2Oc3ccc(NC(=O)Cc4ccccc4)cc3C(=O)N([C@@H](C)CO)C[C@@H]2C)cc1
    0.2, 4.6
26: Cc1cccc(N=C2NC(=O)/C(=C/c3ccc(F)cc3)S2)c1C
    -0.1, -4.5
27: CN(C(=O)CSc1c2c(nc3cc(Cl)ccc13)CCCC2)c1ccc(F)cc1
    ·, -1.2
28: c1csc(-c2nnc(CSc3cccc4cccnc34)o2)c1
    -0.8, 6.0
29: Cc1ccc(S(=O)(=O)N(C)C[C@@H]2Oc3c(NS(=O)(=O)c4cccs4)cccc3C(=O)N([C@H](C)CO)C[C@@H]2C)cc1
    ·, 2.6
30: Cc1ccc(S(=O)(=O)N(C)C[C@H]2Oc3c(NC(=O)C4CCOCC4)cccc3C(=O)N([C@@H](C)CO)C[C@@H]2C)cc1
    ·, -0.1
31: CCSC1=C(C#N)C(c2cccs2)C(C(=O)Nc2ccccc2)=C(C)N1 (stereo unspecified)
    0.4, 2.8
32: C=CCNC(=O)CSc1nccc(-c2sc3sc(Br)c(C)c3c2C)n1
    -0.2, -1.3
33: CC(C)NC(=O)Nc1ccc2c(c1)C(=O)N([C@@H](C)CO)C[C@H](C)[C@H](CN(C)S(=O)(=O)c1ccc(F)cc1)O2
    -0.3, -2.1
34: Cc1noc(C)c1NC(=O)N(C)C[C@H]1Oc2ccc(NC(=O)CCCN(C)C)cc2C(=O)N([C@@H](C)CO)C[C@@H]1C
    -0.2, -5.9
35: Cc1onc(-c2c(Cl)cccc2Cl)c1C(=O)OC1=CC(=O)CC(C)(C)C1
    -0.1, 0.0
36: O=C(Nc1cccc(F)c1)c1cc(S(=O)(=O)NCCc2ccccc2)ccc1F
    0.4, 0.0
37: Cc1nccn1-c1c2c(c(C#N)c3nc4ccccc4n13)CCCC2
    0.2, 3.1
38: C[C@@H]1CN([C@@H](C)CO)C(=O)c2cccc(NC(=O)NC3CCCCC3)c2O[C@H]1CN(C)Cc1ccncc1
    ·, -2.8
39: Cc1noc(C)c1NC(=O)Nc1ccc2c(c1)C(=O)N([C@@H](C)CO)C[C@H](C)[C@@H](CN(C)CC1CCCCC1)O2
    0.1, -8.7
40: CC(CCc1ccccc1)NC(=O)CSc1cc(=O)n(C)c2ccccc12 (stereo unspecified)
    ·, 0.6
41: Cc1c(-n2c(=S)[nH]c3ccccc3c2=O)c(=O)n(-c2ccccc2)n1C
    ·, -1.4
42: C[C@@H]1CN([C@@H](C)CO)C(=O)c2cc(NC(=O)Cc3ccccc3)ccc2O[C@@H]1CN(C)Cc1ccc2c(c1)OCO2
    -0.2, -1.7
43: C=C1CC[C@@H](O)[C@]2(C)C[C@H]3OC(=O)C(=C)[C@H]3CC12 (stereo partly specified)
    -0.6, -5.6
44: COc1ccc(NC(=O)N(C)C[C@H]2Oc3ccc(NS(=O)(=O)c4ccc(C)cc4)cc3C(=O)N([C@H](C)CO)C[C@H]2C)cc1
    -0.2, 1.6
45: CCCOc1ccc(/C=C/C(=O)Nc2ccc(S(=O)(=O)Nc3ncccn3)cc2)cc1
    0.0, 0.9
46: Cc1ccc(S(=O)(=O)Nc2ccc3c(c2)C(=O)N([C@@H](C)CO)C[C@@H](C)[C@@H](CN(C)S(=O)(=O)c2ccc(F)cc2)O3)cc1
    0.1, 0.4
47: Cc1nc2c3ccccc3nc(SCc3cccc(C(F)(F)F)c3)n2n1
    -0.5, -4.4
48: Cn1cnc2c(cnn2-c2ccc(F)cc2)c1=O
    -0.6, 4.6
49: Cc1noc(C)c1S(=O)(=O)N(C)C[C@H]1Oc2c(NC(=O)c3nc4ccccc4s3)cccc2C(=O)N([C@@H](C)CO)C[C@H]1C
    ·, 7.2
50: Cc1nn(CC(=O)NC2CCCC2)c2ccccc12
    0.3, 1.1

Next entries:
Results follow in this order: A1 inh, BJeLR viab HTS
51: CCCCN1C(=O)NC(C(F)(F)F)(C(F)(F)F)C2=C1CC(C)(C)CC2=O
    0.1, 0.8
52: Cc1nc(S(=O)(=O)N2CCC(NC(=O)c3ccccc3)CC2)cn1C
    ·, -2.5
53: COc1ccc(-c2c(O)c3c(OC)c4c(cc3oc2=O)OC(C)(C)C=C4)cc1
    -0.4, -5.4
54: CC(=O)Oc1ccc(C(=O)N2CCc3ccccc3C2)cc1
    0.1, -4.6
55: COc1ccccc1NC(=O)Nc1ccccc1OC
    ·, 9.4
56: COc1cc(C2c3cc(O)c(OC)cc3CC(CO)C2CO[C@@H]2O[C@H](CO)[C@@H](O)[C@H](O)[C@H]2O)ccc1O (stereo partly specified)
    -0.7, 0.3
57: FC(F)(F)c1cc(-c2ccc3ccccc3c2)no1
    -3.3, -5.1
58: C[C@H](CO)N1C[C@H](C)[C@@H](CN(C)C(=O)Nc2ccc3c(c2)OCO3)Oc2c(NC(=O)c3nc4ccccc4s3)cccc2C1=O
    ·, -1.0
59: COCC(C)NS(=O)(=O)c1c(C)cc(C)cc1C (stereo unspecified)
    0.1, 5.4
60: O=c1cc(CSc2nc3ccccc3o2)[nH]c(=S)[nH]1
    -1.4, -1.2
61: CCOC(=O)C1=C(CSc2ccc(Cl)cc2)NC(=O)NC1c1cc(C)ccc1C (stereo unspecified)
    0.1, -2.6
62: C/C=C(\C)C(=O)OC(/C=C/C(O)C(C)O)C1C=CC(=O)O1 (stereo unspecified)
    0.4, -1.1
63: Cc1ccc(SC(=O)c2c(C)noc2COc2ccccc2)cc1
    -0.2, -6.0
64: COc1ccc(S(=O)(=O)Nc2cccc3c2O[C@H](CN(C)C(=O)Nc2ccc4c(c2)OCO4)[C@@H](C)CN([C@@H](C)CO)C3=O)cc1
    ·, -3.4
65: C[C@@H]1CN([C@H](C)CO)C(=O)c2cc(NC(=O)Cc3ccccc3)ccc2O[C@@H]1CN(C)Cc1ccc(C(=O)O)cc1
    0.1, 0.7
66: CC(=O)Oc1ccc(C2OCC3C(C)C=C(C)C2C3C)cc1 (stereo unspecified)
    0.9, 2.1
67: C[C@H](CO)N1C[C@H](C)[C@H](CN(C)C(=O)Nc2cccc3ccccc23)Oc2ccc(NC(=O)C3CCCCC3)cc2C1=O
    0.0, 4.8
68: c1ccc(CNc2nc(NC3CCCCC3)nc(N3CCOCC3)n2)cc1
    -0.5, 2.2
69: Cc1noc(C)c1NC(=O)N(C)C[C@H]1Oc2ccc(N(C)C)cc2C(=O)N([C@H](C)CO)C[C@H]1C
    -0.2, 1.5
70: Cc1nc(-c2cc(C#N)c(SCCC(=O)OC(C)(C)C)nc2C)cs1
    0.0, -0.3
71: C[C@H]1CN([C@@H](C)CO)C(=O)c2cccc(NS(=O)(=O)c3ccc(F)cc3)c2O[C@H]1CN(C)C(=O)Nc1ccc(C(F)(F)F)cc1
    ·, 1.8
72: CC1=C(C)N(c2ccccc2)NC(=S)S1
    0.0, 0.1
73: NNC(=O)c1cc2sccc2s1
    -1.3, -5.2
74: O=C1c2ccccc2C(=O)C1c1cc(=O)[nH]c2c1ccc1ccccc12
    -0.3, 2.5
75: C[C@H](CO)N1C[C@H](C)[C@@H](CN(C)Cc2ccc(C(=O)O)cc2)Oc2c(NC(=O)C3CC3)cccc2C1=O
    ·, -5.8
76: Cc1ccc(-n2cc(-c3ccccc3)c3c(=O)[nH]cnc32)cc1
    0.6, -1.9
77: C[C@@H]1CN([C@H](C)CO)C(=O)c2cc(NC(=O)Nc3cccc4ccccc34)ccc2O[C@H]1CN(C)Cc1ccc(C(=O)Nc2ccccc2N)cc1
    ·, 3.7
78: O=C(C[n+]1ccccc1)Nc1ccccc1C(=O)O
    -0.3, -2.6
79: FC(F)(F)c1cc(-c2ccccc2)n2c(n1)nc1ccccc12
    ·, -0.5
80: CCOC(=O)c1c(NC(C)=O)sc2c1CCCNC2=O
    0.0, -0.7
81: CCc1nn(C(C)C(=O)NC)c(=O)c2cc3occc3n12 (stereo unspecified)
    0.0, -2.5
82: CCOc1ccc(C(=O)n2cnc3cc(C)c(C)cc32)cc1
    ·, 1.1
83: C[C@@H]1CN([C@H](C)CO)C(=O)c2cccc(NC(=O)C3CCCCC3)c2O[C@H]1CN(C)Cc1ccc(Cl)c(Cl)c1
    ·, -2.0
84: C[C@H](CO)N1C[C@H](C)[C@@H](CN(C)C(=O)NC2CCCCC2)Oc2ccc(NC(=O)C3CC3)cc2C1=O
    0.2, 0.6
85: C[C@H]1CN([C@@H](C)CO)C(=O)c2cc(NC(=O)Cn3cnnn3)ccc2O[C@H]1CN(C)Cc1ccc2c(c1)OCO2
    0.0, -7.2
86: Cc1noc(C)c1NC(=O)Nc1ccc2c(c1)C(=O)N([C@H](C)CO)C[C@@H](C)[C@@H](CN(C)Cc1ccc3c(c1)OCO3)O2
    -0.3, 3.8
87: O=S(=O)(c1ccc(Cl)cc1)n1cnc2ccccc21
    -1.0, -2.3
88: Cc1ccc(S(=O)(=O)N(C)C[C@@H]2Oc3ccc(N(C)C)cc3C(=O)N([C@@H](C)CO)C[C@H]2C)cc1
    0.8, -1.0
89: O=c1nc2s/c(=C\c3cccs3)c(=O)n2nc1Cc1ccccc1
    0.0, 0.1
90: CNC[C@H]1Oc2ccc(NS(=O)(=O)c3cn(C)cn3)cc2C(=O)N([C@@H](C)CO)C[C@@H]1C
    0.4, -5.6
91: Cc1ccc(S(=O)(=O)N(C)C[C@H]2Oc3ccc(NC(=O)Nc4ccc(F)cc4)cc3C(=O)N([C@H](C)CO)C[C@H]2C)cc1
    0.1, 3.8
92: O=C1NC(=O)C(c2ccccc2)N1 (stereo unspecified)
    0.1, 4.8
93: O=C(CSc1ncccc1C(=O)N1CCC(Cc2ccccc2)CC1)c1ccccc1
    0.5, -0.6

This is a subset; rates above refer to the full screens.
